# UCH37 inh – blocks the human deubiquitinase UCH37; 330,000 tested, 0.33% active; Q9Y5K5; inhibition, % (concentration not given with the values); purified proteasome/UCH37, Ub-AMC cleavage fluorescence;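 active = mean of two replicates above 20%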;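 note: 0% = compound-free wells with enzyme and 100% = wells lacking proteasome; stock transfer was 100 nL into about 20 µL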
# Target sequence (Q9Y5K5 whole entry, looked up): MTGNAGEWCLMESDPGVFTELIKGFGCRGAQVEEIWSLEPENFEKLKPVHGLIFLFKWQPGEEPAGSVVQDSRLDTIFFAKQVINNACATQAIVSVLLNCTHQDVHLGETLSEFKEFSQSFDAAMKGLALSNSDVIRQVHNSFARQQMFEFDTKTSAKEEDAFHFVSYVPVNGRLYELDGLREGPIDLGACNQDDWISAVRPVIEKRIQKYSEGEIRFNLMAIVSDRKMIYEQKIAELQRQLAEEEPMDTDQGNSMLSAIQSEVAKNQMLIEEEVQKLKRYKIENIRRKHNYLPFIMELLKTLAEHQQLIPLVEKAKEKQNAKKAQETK
#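 Schedule: 30 min plus 25 min, room temperature / Material: human UCH37 within purified proteasomes / Technique: AMC fluorescence intensity at 355/460 nm / Buffer or medium: pH 7.4 Tris-HCl (50 mM) with ovalbumin, ATP-MgCl2, DTT / Controls: wells without proteasome as full block, compound-free enzyme plus substrate as uninhibited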
# HNF4A DNA FP – change in binding of human HNF4 alpha to DNA | 360,000 tested, 0.3% active | HNF4a-FITC DNA binding, fluorescence polarization, 1 h | AID 1224865 | activity change, % at 10 µM; in the data active = activity change above about 30%, passing the limit was not always enough;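 note: controls were the assay level and a saturating level of protein; the project sought stronger binding though the title names inhibitors; some compounds called inactive have numbers as strong as hits; positive values seem to mean higher polarization but the record does not say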
# Target sequence (P41235 whole entry, looked up): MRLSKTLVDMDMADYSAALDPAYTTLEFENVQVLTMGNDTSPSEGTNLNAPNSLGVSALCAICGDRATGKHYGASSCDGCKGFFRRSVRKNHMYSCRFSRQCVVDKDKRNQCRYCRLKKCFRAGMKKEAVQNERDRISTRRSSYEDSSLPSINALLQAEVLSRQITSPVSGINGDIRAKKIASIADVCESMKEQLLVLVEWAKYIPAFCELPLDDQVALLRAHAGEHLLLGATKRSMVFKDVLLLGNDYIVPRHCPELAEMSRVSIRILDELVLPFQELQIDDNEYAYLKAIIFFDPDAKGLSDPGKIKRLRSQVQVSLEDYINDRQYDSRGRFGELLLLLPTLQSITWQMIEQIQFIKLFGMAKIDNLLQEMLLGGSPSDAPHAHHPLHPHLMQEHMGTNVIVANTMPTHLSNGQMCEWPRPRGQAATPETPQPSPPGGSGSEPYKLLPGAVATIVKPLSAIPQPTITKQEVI
# Vif TR-FRET – HIV-1 Vif–A3G interaction blockers – biochemical, TR-FRET, GST-Vif 1-94, biotin-A3G peptide, dose response retest, primary screen (AID 1117319); TR-FRET GST-Vif / biotin-A3G peptide binding; higher % means a stronger effect; test concentration not given here; strong numbers were not always called active; one-dose inhibition, %; IC50 in µM for titrated hits; 260,000 tested, 0.57% active;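 active = above the screen mean plus three standard deviations and confirmed in dose response; inconclusive = results disagree or hit not tested in dose response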;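 note: Vif residues 1-94 fused to GST binding biotinylated APOBEC3G peptide 110-148; 0% = full assay without inhibitor and 100% = GST in place of GST-Vif; retest series ran down from 100 µM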
# FGF22 binding – shifts melting point of recombinant human FGF22; calls only at 9.99 µM; AID 651658; 340,000 tested, 1.5% active; recombinant FGF22 thermal shift, SYPRO orange fluorescence; percent of sucrose octasulfate shift, DMSO zero;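 active = melting point raised past a set limit in the mean and every replicate; inconclusive = no clear call; three in four hits are not shown here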
# Target sequence (Q9HCT0 whole entry, looked up): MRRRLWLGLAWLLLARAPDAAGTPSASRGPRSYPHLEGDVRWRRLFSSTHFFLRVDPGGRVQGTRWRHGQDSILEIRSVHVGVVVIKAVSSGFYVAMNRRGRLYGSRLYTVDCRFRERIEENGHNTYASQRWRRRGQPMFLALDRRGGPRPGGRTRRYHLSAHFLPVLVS
# RanGTP-Impb inh – inhibitors of RanGTP-importin-beta interaction, primary screen, biochemical, FRET, CFP-Ran, YFP-importin-beta, homogeneous | 300,000 tested, 1.1% active | AID 2216 | inhibition, % (concentration not given with the values) | cell-free CFP-Ran/YFP-importin-beta FRET ratio;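 active = most replicates above 15%; inconclusive = exactly half above 15%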;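 note: 0% = DMSO wells and 100% = Ran loaded with GDP instead of GTP; wells of about 40 µL received 100 nL stock; the first replicate is given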
# AF4-AF9 inh – blocks AF4 peptide binding to human AF9. AlphaScreen, biotin-AF4 peptide binding to FLAG-AF9. AID 651704. 350,000 tested, 0.47% active. inhibition, % at 10 µM. P42568;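 active = every replicate reaching a set inhibition limit, whatever the replicate mean, cut at about 25% in these data; inconclusive = mean inhibition reaches that limit but some replicates miss it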;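 note: 0% = plate neutral control median and 100% = total signal loss; the record names both 10 and 1 µM as test concentration; the first replicate is given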
# Ecoli growth – E. coli growth inhibition; 330,000 tested, 0.21% active; OD600 absorbance (concentration not given with the values); Escherichia coli growth, OD600, 23 h; active compounds read low; AID 1053175;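 active = OD600 absorbance below the run mean of sample wells minus 3.6 SD, in any replicate, cut at about 0.56 in these data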;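 note: stock transfer was 300 nL into about 60 µL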
# Active calls of the source: *; i = inactive; ? = inconclusive; / = no result given; & = joins results of further samples. Some of the compounds tested (hit frequency here may not be typical).
no.	Compound	UCH37 inh	HNF4A DNA FP	Vif TR-FRET	FGF22 binding	RanGTP-Impb inh	AF4-AF9 inh	Ecoli growth
1	COc1ccccc1CNC(=O)C1CC(c2ccc([N+](=O)[O-])cc2)=NO1 (stereo not drawn)	2.8	-1.7	-2%	i	-0.3	-0.1	0.64
2	COc1ccc(C(=O)COC(=O)CNC(=O)c2cccc(OC(F)F)c2)cc1	1.2	5.4	17%	i	2.2	-2.2	0.68
3	COc1ccccc1NS(=O)(=O)c1cc(NC(=O)c2cc3ccccc3oc2=O)ccc1C	2.3	-0.1	6%	i	-3.4	-6.4	0.75
4	O=C(O/N=C1/CCSc2ccccc21)c1ccc(F)cc1	/	-3.1	1%	i	/	9.3	/
5	CC1CCN(c2nncc3ccccc23)CC1	5.5	3.1	3%	/	-0.1	/	0.71
6	O=C(O)c1ccc(/C=C/c2nc3ccccc3c(=O)[nH]2)cc1	-1.9	-1.7	-1%	i	?	1.2	0.67
7	Cc1csc(NC(=O)CS(=O)(=O)c2ccccc2)n1	-1.2	-0.3	-2%	i	1.1	-3.3	0.71
8	O=C(NCc1cccnc1)C1CC2c3ccccc3C1c1ccccc12 (stereo not drawn)	0.8	-0.2	-2%	/	1.0	/	0.66
9	CCCC(c1nnnn1CCOC)N(Cc1cc2cc(C)c(C)cc2[nH]c1=O)CC1CCCO1 (stereo not drawn)	0.8	-3.8	2%&7%	i	-10	1.3	0.74
10	CC(=O)OC1COC(OC(C)=O)CO1 (stereo not drawn)	2.4	2.2	5%	i	/	-1.9	0.68
11	Cc1ccccc1-c1nc(CS(=O)(=O)CC(=O)NCc2ccco2)c(C)o1	4.7	4.5	-9%	i	4.6	-1.6	0.68
12	CCc1nc2ccc(C(=O)N(C)CCCN(C)C)cn2c1N(C=O)CCC(C)C	/	-3.2	/	i	/	-3.5	/
13	CC(CC(=O)Nc1nnc(C(C)(C)C)s1)c1ccccc1 (stereo not drawn)	2.7	-3.9	/	i	1.8	0.9	0.68
14	CN1CC=C2C(C#N)=C(N)C(C#N)(C#N)[C@H](c3ccoc3)[C@H]2C1	-72	-74	31%	/	51*	/	0.75
15	CCOC(=O)N1CCC(=NNc2nc(C)cc(=O)[nH]2)CC1	0.3	-2.5	4%	i	-0.8	-10	0.67
16	C=CCc1cc(Cl)ccc1OCCN(C)C	2.6	2.2	0%	i	1.6	8.2	0.69
17	CCCN1C2CCCC1CC(NC(=S)Nc1ccc(OC)cc1)C2 (stereo not drawn)	3.9	2.8	11%	i	0.6	1.7	0.69
18	CC1=NNC(=O)C1Cc1ccc(F)cc1 (stereo not drawn)	3.1	0.7	-1%	i	-2.4	1.3	0.67
19	Cc1ccc(CSc2nc(N)cc(N)n2)cc1	1.0	-1.9	/	i	1.2	-0.8	0.6
20	Cc1noc(C)c1NC(=O)N(C)C[C@@H]1Oc2ccc(NC(=O)C3CCCCC3)cc2C(=O)N([C@@H](C)CO)C[C@H]1C	2.4	0.4	/	i	/	-3.2&1.2	0.79
21	Cc1cc(C)cc(NS(=O)(=O)c2cccs2)c1	0.9	0.7	4%	i	-3.4	-4.8	0.62
22	COc1ccc(CC(=O)NCCc2ccc3c(c2)OCO3)cc1OC	/	-1.7	-7%	i	/	0.7	/
23	Nc1cccc2c1C(=O)N(C(=O)c1cccc(S(=O)(=O)N3CCCCCC3)c1)C2=O	-96	-11	-1%	/	19*	/	0.73
24	CCOC(=O)c1c(NC(=O)CC2SC(N)=NC2=O)sc2c1CCC(C)C2 (stereo not drawn)	1.4	1.7	/	/	?	/	0.63
25	Cc1cccc(-c2nnc(SCCC(=O)N3CCOCC3)o2)c1	0.9	-1.3	-2%	/	4.8	/	0.63
26	O=C(c1cccc(S(=O)(=O)N2CCN(c3ccccc3)CC2)c1)N1CCCC(C(F)(F)F)C1 (stereo not drawn)	3.4	-2.4	-6%	/	3.9	-10	0.71
27	Cc1nc2ccccc2c2c1C(=O)N(C1CCCCCCC1)C2=O	-9.7	3.7	-1%	/	7.1	/	0.71
28	COC(=O)C[C@@H]1C=C[C@H](NS(=O)(=O)c2cccc(F)c2)[C@@H](CO)O1	/	-2.7	/	i	/	1.3	/
29	CCCOc1cc2c(C#N)c(N3CCCC3)nc(N)c2c(N)n1	-25	185	/	i	6.4	2.1	0.65
30	O=C(Nc1ccccc1F)Nc1cccc2ccc(O)cc12	-5.3	-0.6	?	i	9.6	-2.6	0.65
31	CCOc1ccc(N=c2scc(-c3ccccc3)n2CCO)cc1	4.2	-2.7	-4%	i	-1.2	1.6	0.72
32	CC1(C)Cc2c(sc3c2c(=O)n(Cc2ccccc2)c2nncn32)CO1	-1.2	-3.9	/	/	/	/	0.74
33	CN1CCN(c2ncnc3c2ncn3[C@H]2CN(Cc3ccc(-c4ccccc4)cc3)C[C@@H](CO)O2)CC1	/	1.3	/	i	/	17	/
34	Cc1cc(NC(=O)COC(=O)CCC(=O)c2ccc(F)cc2)no1	5.1	0.6	5%	/	6.8	/	0.74
35	Cc1cccc(C(=O)NC(=S)NC(C)c2ccccc2)c1 (stereo not drawn)	-1.7	0.1	/	i	-1.3	2.3	0.64
36	CC(C)c1ccc(/C=N/n2nnnc2Nc2ccccc2)cc1	/	3.8	?	/	0.5	/	/
37	Cc1cc(NC(=O)C2CCCCC2)ncc1NC(=O)c1ccccn1	0.8	1.6	2%	i	0.9	-0.4	0.66
38	O=C(c1cc2ccccc2s1)N1CCN(c2ccccn2)CC1	7.4	4.7	/	i	0.5	-2.9	0.67
39	O=C(CSc1nnc(-c2ccncc2)o1)Nc1cc(F)ccc1F	3.4	-4.9	8%	i	/	0.4	0.66
40	Cc1ccc2c(c1)nnn2C1CCN(CC(=O)NCCc2ccccc2)CC1	2.9	2.2	-2%	i	2.5	-24	0.68
41	COc1cc(CC(=O)OCC(=O)Nc2ccc3c(c2)OCO3)cc(OC)c1OC	3.6	2.5	11%	i	-3.4	2.8	0.68
42	COc1ccccc1-c1ccc(=O)n(CC(=O)NCC2CCCO2)n1 (stereo not drawn)	0.4	1.0	/	i	-2.3	-1.7	0.69
43	O=S(=O)(c1ccc(Br)cc1)n1ccc2ccccc21	1.4	2.5	-11%	/	-3.2	/	0.7
44	CCN(CC(=O)NCc1ccco1)S(=O)(=O)c1ccc(OC)cc1	0.0	1.0	-3%	i	/	-12	0.66
45	CCc1c(C2(O)CCCCC2)[nH]c2cc(C(F)(F)F)ccc12	-0.4	-2.0	/	/	-1.1	/	/
46	CCn1cc(C(=O)NCCc2ccc(OC)cc2)c(=O)c2ccc(C)nc21	0.6	-0.6	?	i	-2.7	-3.5	0.69
47	Cc1cc(=O)oc2cc(OCC(=O)Nc3cccc(S(=O)(=O)N(C)C)c3)ccc12	/	-1.4	/	i	0.0	-2.4	/
48	Cc1ccc(NC(=O)COc2ccc(Br)cc2CO)cc1S(=O)(=O)N1CCOCC1	1.7	-1.9	/	i	/	0.6	0.67
49	CCCNc1c(NS(=O)(=O)c2cccs2)c(=O)oc2ccccc12	-2.8	-7.1	18%	/	2.7	-1.0	0.64
50	Cn1/c(=N/NC(=O)c2cccc(OC(F)F)c2)sc2ccccc21	/	0.8	2%	i	-2.0	-2.3	/

# Next part.
no.	Compound	UCH37 inh	HNF4A DNA FP	Vif TR-FRET	FGF22 binding	RanGTP-Impb inh	AF4-AF9 inh	Ecoli growth
51	COc1cccc(OC)c1C(=O)NN1CCCCC1	-0.4	0.5	-6%	i	-0.9	0.8	0.75
52	CC(C)C(NC(=O)C1CCCCC1)C(=O)NCCc1ccccc1 (stereo not drawn)	3.8	3.0	4%	i	3.7	2.2	0.66
53	CCSc1ncnc2c1sc1nc3c(cc12)COC(C)(C)C3	4.7	4.9	/	i	-0.3	-0.6	0.69
54	C=CCC1(CC=C)CCCN1C(=O)c1cc(COc2cccc(C(F)(F)F)c2)on1	2.8	0.7	/	i	-1.5	-12	0.7
55	Cc1cccn2c(=O)c(/C=C(\C#N)C(N)=O)c(N3CCN(c4cccc(Cl)c4)CC3)nc12	-5.2	3.8	/	i	4.6	13	0.69
56	Cc1cc(C)c(OCC(=O)Nc2ccc(S(=O)(=O)N3CCCC3)cc2)c(C)c1	3.4	0.8	-8%	i	0.3	-6.4	0.71
57	CCOC(=O)C1=C(CC)Nc2ccccc2N=C1NC(=O)CCN1C(=O)C2CCCCC2C1=O (stereo not drawn)	5.1	-2.7	/	i	?	-2.2	0.69
58	CN1CCN(c2ccc([N+](=O)[O-])c(-n3nc(-c4ccccc4)c4ccccc4c3=O)c2)CC1	9.7	-1.5	1%	/	?	/	0.76
59	CCOC(=O)Cc1csc(NC(=O)CN2C(=O)c3ccccc3C2=O)n1	-4.9	2.4	/	i	-1.3	-0.7	0.64
60	CC1CCN(c2ccc(NC(=O)Cn3c(=O)oc4ccccc43)cc2)CC1	3.2	2.9	-5%	i	-5.6	2.8	0.71
61	COc1ccc(S(=O)(=O)NCCc2ccccc2)c2cccnc12	-10	-0.7	-8%	i	?	-1.2	0.63
62	CN(C)S(=O)(=O)Nc1cccc(NC(=O)CC23CC4CC(CC(C4)C2)C3)c1	/	-2.5	-5%	i	4.7	2.4	/
63	CCCC(=O)N1CCCC(c2nc(-c3cccs3)no2)C1 (stereo not drawn)	0.2	-0.1	32%	/	4.0	/	0.69
64	CN(Cc1ccc(C(F)(F)F)cc1)C(=O)C1CCC(=O)N(C2CC2)C1 (stereo not drawn)	-1.6	3.2	/	i	2.4	-2.1	0.65
65	COc1ccc(NS(=O)(=O)c2cccc(C(=O)N(C)Cc3cccs3)c2)cc1	3.0	-0.8	5%	i	-3.9	-1.0	0.69
66	Cc1ccc(S(=O)(=O)N2[C@@H](c3ccc(Cl)cc3)C(C(=O)O)=CC[C@H]2c2ccc(Cl)cc2)cc1	-0.9	0.6	/	i	/	-0.7	/
67	O=C(NNC(=S)Nc1cccc(Cl)c1)c1ccccc1	0.2	-1.6	1%	i	0.9	2.2	0.65
68	Cc1ccc(C(=O)CSc2nc3ccccc3c(=O)n2N)o1	3.9	2.7	32%	/	-3.7	/	0.65
69	C[C@H](NC(=O)c1ccccc1)C(=O)OCC(=O)c1c[nH]c2ccccc12	-0.2	-2.1	-2%	i	/	4.1	0.68
70	O=C(COC(=O)C1=Cc2ccccc2OC1)NC1CCCC1	0.1	1.3	0%	/	1.6	/	0.69

# 3 compounds already listed, arranged by their value in HNF4A DNA FP, falling.
cpd	mol	UCH37 inh	HNF4A DNA FP	Vif TR-FRET	FGF22 binding	RanGTP-Impb inh	AF4-AF9 inh
8	O=C(NCc1cccnc1)C1CC2c3ccccc3C1c1ccccc12 (stereo not drawn)	0.8	-0.2	-2%	/	1.0	/
65	COc1ccc(NS(=O)(=O)c2cccc(C(=O)N(C)Cc3cccs3)c2)cc1	3.0	-0.8	5%	i	-3.9	-1.0
39	O=C(CSc1nnc(-c2ccncc2)o1)Nc1cc(F)ccc1F	3.4	-4.9	8%	i	/	0.4

# Continuation.
no.	Compound	UCH37 inh	HNF4A DNA FP	Vif TR-FRET	FGF22 binding	RanGTP-Impb inh	AF4-AF9 inh	Ecoli growth
71	CC1=CC(C)(C(Cl)(Cl)Cl)C(C)=CC1=NO (stereo not drawn)	/	-0.6	4%	i	/	8.5	/
72	CCOc1ccc(OCC(=O)OCC(=O)NNC(=O)c2ccc([N+](=O)[O-])cc2)cc1	4.4	2.8	-4%	i	12	-0.2	0.63
73	CCCCNC(=O)Cn1cnc2sc(C(=O)OCC)c(C)c2c1=O	5.5	3.6	2%	/	7.1	/	0.73
74	COc1cccc(OC)c1NC(=O)Cn1nc(-c2ccc3c(c2)OCCO3)ccc1=O	7.6	-0.5	/	i	-1.2	-0.8	0.71
75	CC(OC(=O)c1ccc(NC(=O)CC#N)cc1)C(=O)Nc1ccc(S(=O)(=O)N2CCCC2)cc1 (stereo not drawn)	/	4.8	/	i	/	-1.8	/
